Source: PubChem BioAssay (National Center for Advancing Translational Sciences (NCATS))
D2 potentiator = Beta-Arrestin HTS for Positive Allosteric Modulators of the Human D2 Dopamine Receptor: Potentiators. D(2) dopamine receptor (Homo sapiens), P14416. DiscoveRx D2 beta-arrestin cells, luminescence, 90 min; 100% = 57 uM dopamine signal. potentiation, % (test concentration not listed). 0.23% of 360,000 active. AID 624464, 2012; active = potentiation of 50% or more; inconclusive = 30% to 50%; inactive = 30% or less;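 note: compound concentration not given in the record; tested on top of an EC20 dose of dopamine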
Target sequence (P14416 whole entry, looked up): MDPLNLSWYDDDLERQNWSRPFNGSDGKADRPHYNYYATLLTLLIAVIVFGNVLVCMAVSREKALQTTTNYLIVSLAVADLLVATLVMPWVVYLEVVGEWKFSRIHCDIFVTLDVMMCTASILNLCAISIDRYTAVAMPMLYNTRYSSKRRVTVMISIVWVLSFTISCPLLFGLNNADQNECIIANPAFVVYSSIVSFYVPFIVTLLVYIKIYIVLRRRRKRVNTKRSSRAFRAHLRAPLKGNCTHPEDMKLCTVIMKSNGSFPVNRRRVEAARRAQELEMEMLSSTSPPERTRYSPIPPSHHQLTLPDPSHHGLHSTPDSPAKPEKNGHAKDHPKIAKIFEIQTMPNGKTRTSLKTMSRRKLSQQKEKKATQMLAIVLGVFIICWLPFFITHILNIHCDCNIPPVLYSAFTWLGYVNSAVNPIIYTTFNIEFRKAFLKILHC
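PathHunter beta-arrestin assay in DiscoveRx D2 cells. Compounds were added with an EC20 of dopamine (50 nM final) for 90 min at 37 deg C. Luminescence was read 1 h after detection reagent, with 57 uM dopamine as the EC100 control.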
D2 ag = Beta-Arrestin HTS for Positive Allosteric Modulators of the Human D2 Dopamine Receptor: Agonists; DiscoveRx PathHunter D2 beta-arrestin, luminescence, 90 min; 100% = 57 uM dopamine signal; activation, % (test concentration not listed); 0.084% of 360,000 active; in the data active = activation above about 40%; inconclusive = about 15% to 40%; inactive = below about 15%; note: compound concentration not given in the record; the text of the record calls up to 30% inactive
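DiscoveRx PathHunter D2 beta-arrestin cells (2,100/well) attached overnight, then compound-stimulated 90 min at 37 C in HBSS/10 mM HEPES/0.1% Tween-20 buffer; beta-galactosidase complementation read by luminescence after 1 h at ambient temperature. Dopamine 57 uM final (EC100) as control.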
PINK1 modulator = A Quantitative High throughput Screen to Identify Chemical Modulators of PINK1 Expression; PINK1 immunofluorescence, high-content cytometry, 24 h; 0.2% of 410,000 active; Potency, µM (top dose mostly 76.6 µM), for the others: top-dose activation (PINK1 increase), actives largely listed as activators; active = well fitted activation curve with a large enough effect; inconclusive = small, poorly fitted or top-dose-only effect; inactive = flat fitted curve, though single readings scatter; cell line not stated here;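 note: potency is the fitted concentration of half-maximal effect; % of control where 0% means no effect; nearly all actives have a fitted effect of over 65% in size; a mitochondrial uncoupler was the plate control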
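Cells are seeded, rested 12 hours, then given compound at five concentrations or DMSO for 24 hours. After fixation, blocking and antibody staining, PINK1 amount and mitochondrial localization are scored; CCCP serves as control.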
Six1-Eya2 inh = qHTS Assay for Inhibitors of the Six1/Eya2 Interaction; Homeobox protein SIX1 (Homo sapiens) + Protein phosphatase EYA2 (Homo sapiens), …; 0.56% of 360,000 active; AlphaScreen GST-Six1/His-Eya2 binding, biochemical; hits give low values; control for the full effect not named in the record; activity change, % (no concentration beside the values); in the data active = activity change below about -65%; inconclusive = about -30% to -65%; inactive = above about -30%; note: % is set by controls: 0 for no effect and ±100 for the full control effect; compound concentration not given in the record
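GST-Six1 + His-Eya2 (5X stock: 250/500 nM); Tris pH 8.0, 300 mM NaCl, 0.05% BSA, 0.02% Tween 20; GSH donor/Ni acceptor beads; 1 h 37 °C dark; AlphaScreen readout.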
CtBP-E1A inh = qHTS Assay for Inhibitors of the CtBP/E1A Interaction | AID 651724, 2012 | 0.49% of 340,000 active | AlphaScreen GST-E1A/His-CtBP binding, 1536-well; hits give low values; control for the full effect not named in the record | CtBP / adenovirus E1A interaction (AlphaScreen) | activity change, % (concentration not given with the values); in the data active means activity change below about -65%; inconclusive means about -30% to -65%; inactive means above about -30%; note: % is set by controls: 0 for no effect and ±100 for the full control effect
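Steps: dispense buffer (Tris pH 8.0, NaCl 300 mM, TCEP 1 mM, BSA, Tween 20); add 5X protein mix (GST-E1A, His-CtBP, 125 nM each); pin 23 nL compound; 2 h at 37 °C, dark; add 5X beads (50 ug/mL); 1 h; read.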
TRPML1 ag = qHTS for Agonists of the Human Mucolipin Transient Receptor Potential 1 (TRPML1) | Mucolipin-1 (Homo sapiens), Q9GZU1 | TRPML1-expressing cells, Ca2+ dye fluorescence, FDSS; host cell line not named in the record; reference of the full effect not given here | activation, % (test concentration not listed) | 0.12% of 410,000 active | AID 624414, 2012; in the data active = activation above about 50%; inconclusive = about 30% to 50%; inactive = below about 30%; note: 0% is about no effect; the text of the record puts the active cut at 80%
Target sequence (Q9GZU1 whole entry, looked up): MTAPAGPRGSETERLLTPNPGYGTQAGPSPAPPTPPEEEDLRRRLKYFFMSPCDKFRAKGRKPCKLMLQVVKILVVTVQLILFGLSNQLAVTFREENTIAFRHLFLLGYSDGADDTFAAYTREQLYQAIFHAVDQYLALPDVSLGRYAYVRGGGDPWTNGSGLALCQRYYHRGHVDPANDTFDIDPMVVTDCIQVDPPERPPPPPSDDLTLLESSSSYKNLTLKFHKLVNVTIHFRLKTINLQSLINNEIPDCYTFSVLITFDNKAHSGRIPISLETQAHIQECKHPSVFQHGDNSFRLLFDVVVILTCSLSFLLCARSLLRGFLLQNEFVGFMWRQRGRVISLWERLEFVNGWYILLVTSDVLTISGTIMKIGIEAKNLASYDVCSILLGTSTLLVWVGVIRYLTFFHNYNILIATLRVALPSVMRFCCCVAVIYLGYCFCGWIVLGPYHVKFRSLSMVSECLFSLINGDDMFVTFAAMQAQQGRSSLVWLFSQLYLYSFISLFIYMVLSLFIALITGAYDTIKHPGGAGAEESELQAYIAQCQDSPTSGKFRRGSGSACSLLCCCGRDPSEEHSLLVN
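In this qHTS format, compounds were pin-transferred onto Ca8-dye-loaded TRPML1-DL cells induced with Tet overnight, and intracellular Ca2+ fluorescence was recorded kinetically for 110 s after a 10 s baseline. A subsequent 4uM final 54-4 (EC80) addition followed by a second 110 s read served as the antagonist phase.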
The depositor's hits bear a star; ? = inconclusive; · = no result given; [ ] = dose if it differs, or a comment.

Each structure is followed by: D2 potentiator	D2 ag	PINK1 modulator	Six1-Eya2 inh	CtBP-E1A inh	TRPML1 ag
Cc1ccc2c(c1)-c1[nH]c(=S)ncc1CS2
  60*	-3.0	-1.6%	-5	·	2.4
O=C(CCCC(=O)c1ccc(F)cc1)c1ccc(F)cc1
  -4	-3.5	-1.1%	45	45	2.2
Cc1cccc(C)c1N(CC(=O)N1CCN(c2ccccc2F)CC1)S(C)(=O)=O
  -5	-4.8	1.1%	3	-1	0.0
COc1cc2c(cc1OC)C(c1cc(C)ccc1C)CC(=O)N2 (stereo not drawn)
  -1	-2.0	3.7%	-10	3	-0.1
CC(=O)Oc1ccccc1C(=O)O
  3	-3.7	-0.2%	-1	3	-0.8
CCOC(=O)c1[nH]c2ccc(C(=O)OC)cc2c1C(=O)OCC
  13	8.0	3.4%	?	·	0.9
Cc1cc(NC(=O)CCCC(=O)Nc2ccc(F)cc2)no1
  -12	-2.4	0.4%	5	0	-0.6
COc1ccc(NC2c3ccccc3C(=O)N2c2ccccn2)cc1 (stereo not drawn)
  2	-2.2	0.9%	4	3	·
O=C(NCc1ccncc1)c1ccc(Oc2ccccc2)cc1
  -3	-1.9	1.0%	-4	-3	0.5
Cc1ncc2c(c1OC(=O)c1ccc([N+](=O)[O-])cc1)COC(C)(C)OC2
  13	3.9	-0.8%	-8	-6	-0.1
COc1ccc(CNC(=O)O[C@H]2C[C@@H]3C(=O)N(c4ccccc4)C(=O)[C@@H]3[C@@H]3CN(S(=O)(=O)c4ccc(C)cc4)C[C@]23O)cc1OC
  1	-7.0	1.2%	0	2	-0.3
Cc1c(NC(=O)c2cnn3c2NC(c2ccccc2)CC3C(F)(F)F)c(=O)n(-c2ccccc2)n1C (stereo not drawn)
  0	-3.7	-2.2%[38.3 µM]	0	9	0.2
Cc1ccc(S(=O)(=O)N(Cc2cccc(C)c2)C(=O)N2CCN(C)CC2)cc1
  -7	0.9	5.5%	2	2	0.5
O=C(NCCSCc1ccco1)c1ccc(=O)[nH]c1
  -1	-0.5	-0.4%	-7	-7	0.7
Cc1ccc(NC(=O)COC(=O)c2cc(Cl)ccc2[N+](=O)[O-])c(C)c1
  -5	4.3	-0.9%	-4	-5	1.6
N#Cc1c(/N=C/c2ccco2)sc2c1CCC2
  1	6.6	-2.2%	-11	-9	-1.3
COCC(C)n1c(C)cc(C(=O)COC(=O)c2cc(=O)[nH]c3ccccc23)c1C (stereo not drawn)
  5	2.4	4.5%	-13	0	2.7
O=C(NCCOc1ccccc1Cl)c1ccc2c(c1)S(=O)(=O)c1cc(Cl)ccc1C2=O
  8	5.4	1.0%	-8	·	0.4
CCOc1ccc(N(CC(=O)N2CCCCCC2)S(=O)(=O)c2ccc(F)cc2)cc1
  -6	0.7	0.6%	4	3	0.4
Cc1ccc(S(=O)(=O)Nc2cc(C(=O)N3CCOCC3)ccc2N2CCCCC2)cc1
  -4	-4.3	-0.6%	2	1	2.6

Single records (already shown). Order of screens: D2 potentiator	D2 ag	PINK1 modulator	Six1-Eya2 inh	CtBP-E1A inh	TRPML1 ag
`COc1ccc(NC2c3ccccc3C(=O)N2c2ccccn2)cc1` (stereo not drawn) across the screens: 2	-2.2	0.9%	4	3	·
`O=C(NCCSCc1ccco1)c1ccc(=O)[nH]c1` across the screens: -1	-0.5	-0.4%	-7	-7	0.7

New compounds follow.
Each structure is followed by: D2 potentiator	D2 ag	PINK1 modulator	Six1-Eya2 inh	CtBP-E1A inh	TRPML1 ag
CS(=O)(=O)N1CCCC(C(=O)NCCN2CCC(Cc3ccccc3)CC2)C1 (stereo not drawn)
  -17	2.3	-1.1%[38.3 µM]	2	9	0.1
CCOC(=O)N1CCC2(CC1)C(C#N)=C(N)Oc1n[nH]c(CSc3ccc(C)cc3)c12
  1	1.4	1.0%	-1	9	-0.6
CCc1cc2cc(OC)ccc2nc1SCC(=O)Nc1cc(OC)c(OC)cc1C(=O)O
  -17	-1.5	2.4%	-5	2	4.9
Cc1noc(C)c1S(=O)(=O)N(C)C[C@H]1Oc2c(NC(=O)Nc3ccc(C(F)(F)F)cc3)cccc2C(=O)N([C@H](C)CO)C[C@@H]1C
  ·	1.4	4.3%	0	3	-0.7
COc1ccccc1NS(=O)(=O)c1cc(NC(=O)Nc2ccc(Cl)cc2Cl)ccc1N1CCCCC1
  -7	1.3	-2.1%	-1	8	0.9
O=C(c1ccc(C(F)(F)F)cc1)c1c[nH]c(C(=O)NCCCn2ccnc2)c1
  -8	-2.8	8.6%[38.3 µM]	-10	-9	-0.8
CCOc1ccc(-n2nnc3c(=O)n(CC(=O)Nc4cc(C)on4)cnc32)cc1
  1	5.9	15%	5	2	1.1
CC(=O)c1ccc(NC(=O)c2noc(C)c2[N+](=O)[O-])cc1
  4	14	-0.7%	2	·	2.6
Cc1ccc(S(=O)(=O)CCc2nnc(NC(=O)CCl)s2)cc1C
  -6	-1.3	-2.3%	5	-23	0.3
Cc1ccc(CNCc2cccnc2)cc1
  -22	-1.6	-1.3%	-3	4	1.4
CCNC(=O)CSc1ncnc2sccc12
  10	-1.9	-2.1%	-12	?	4.5
Cc1ccc(CSCC(=O)N/N=C/c2sccc2C)cc1
  -7	-2.0	0.2%	-13	-1	-0.5
COc1ccc(N=Cc2nc(-c3ccccc3)oc2OC(C)=O)cc1
  -23	-3.7	3.3%	2	·	-0.7
CCOC(=O)C1=C(C(=O)OCC)N(Cc2ccccc2)CCC1=O
  -5	-1.5	4.7%	1	8	-1.1
Cc1cc(C)cc(NC(=O)CSc2nc(=O)n(CCCN3CCOCC3)c3c2CCCC3)c1
  -12	0.4	-1.0%	-10	-3	1.3
CC(C)C[C@H](NC(=O)N1CCn2c1nc1ccccc12)C(=O)NCc1ccco1
  -11	-2.8	-1.1%	-2	-5	-0.9
Cn1c(CCNC(=O)c2cc(COc3ccc(F)c(F)c3)on2)nc2ccccc21
  -2	-1.7	0.0%	-5	0	0.6
COc1ccc(-c2csc(NC(=O)c3ccc(OCC(=O)N4CCOCC4)c(OC)c3)n2)cc1OC
  17	4.7	-6.6%	-21	-15	-0.6
CC1(C)CC(=O)c2c(O)cc(OCC(=O)N3CCN(c4ccc(F)cc4)CC3)cc2O1
  -9	3.6	0.2%	-15	-15	3.0
COc1cccc(/C=C2\Sc3ccc(C(=O)NCC4CCCO4)cc3N(C)C2=O)c1 (stereo not drawn)
  -6	0.0	1.3%	-7	·	1.4
C=CCn1c(C)cc(C(=O)CSc2nc(N)cc(N)n2)c1C
  0	-0.2	-1.4%	-4	·	2.6
COc1ccc(C(=O)Nc2ccc(S(=O)(=O)Nc3nccc(C)n3)cc2)cc1
  -1	1.3	1.7%	3	·	1.4
Cc1c(Nc2c3ccccc3nc3ccccc23)c(=O)n(-c2ccccc2)n1C
  6	0.2	1.3%	2	7	-0.2
N#Cc1c(-n2cccc2C=O)sc2c1CCCC2
  -11	0.4	0.6%	9	-9	2.1
Cc1cc(OCCCCCN2CCCC2)ccc1Cl
  -5	-7.5	1.1%	10	-8	2.1
CC(NC(=O)c1ccccc1)C(=O)OCn1nnc2ccccc2c1=O (stereo not drawn)
  -3	0.6	-1.8%	-3	-24	-0.2
O=C(Nc1ccc(NC(=O)c2cccnc2)cc1)c1ccccc1
  -3	-3.9	6.9%	5	-1	0.6
Cn1cccc1C(NC(=O)c1ccccc1)C(Cl)(Cl)Cl (stereo not drawn)
  3	4.7	2.5%	-24	·	0.3
COCCNC(=O)c1cc(-c2ccccc2OC)on1
  -13	-2.7	6.7%	3	8	-0.2
CCCCn1c(N)c(N(CC(C)C)C(=O)C2CCN(S(=O)(=O)c3ccccc3)CC2)c(=O)[nH]c1=O
  -2	-2.0	3.0%	1	1	-0.6
Cc1nn(-c2ccccc2)c(C)c1/C=C/C(=O)OCC(=O)Nc1ncc(C(F)(F)F)cc1Cl
  -3	-1.9	?	-4	-1	1.1
Cc1cccc(N2CCN(c3ccc4cc(S(=O)(=O)N5CCCCC5)ccc4n3)CC2C)c1 (stereo not drawn)
  -1	1.3	-0.7%	2	9	-0.5
CCOc1ccccc1OCCCC(=O)N1CCN(S(=O)(=O)c2cccc(F)c2)CC1
  4	0.1	-0.8%	4	-1	0.4
CC(=O)NS(=O)(=O)c1ccc(NC(=O)C(C)NS(=O)(=O)/C=C/c2ccccc2)cc1 (stereo not drawn)
  -8	-2.2	2.8%	10	·	-0.1
S=c1[nH]cc(-c2ccccc2)n1-c1cccc(Cl)c1
  1	2.9	3.1%	-6	-7	-0.4
Cc1cc(C)nc(NC2=NCCN2C(=O)NC2CCCCC2)n1
  -11	-1.9	1.9%	1	-11	-0.6
CCCCc1cc(=O)oc2cc(OS(C)(=O)=O)ccc12
  -4	-5.0	0.3%	1	1	-0.4
COc1cc(-c2cc(-c3ccc(N)cc3)[nH]c(=O)c2C#N)cc(OC)c1OC
  3	-4.6	15%	11	8	5.9
Cc1ccnc(N/N=C/c2ccccc2)n1
  -3	-2.0	-2.1%	4	7	-0.1
CCc1cc(/C(Cc2ccc3ccccc3n2)=N\O)c(O)cc1O
  24	-2.2	8.2%	-3	-3	1.2
COc1cc(C(=O)NCC(=O)OCC(=O)Nc2nnc(-c3ccccc3)o2)cc(OC)c1OC
  -12	-0.3	0.6%	-14	-2	-0.4
CCOc1ccc(C(=O)CCN2CCCCCC2)cc1
  -7	0.2	-0.8%	3	6	7.8
CC(=O)N1[C@H](Cc2ccccc2)C=C[C@]1(C)C(=O)NCc1ccc(C)o1
  -31	-0.2	2.6%	-1	5	-0.9
Cc1csc2c(N3CCN(C(=S)Nc4ccc(F)cc4F)CC3)ncnc12
  -3	-1.6	-0.7%	-18	0	0.5
O=C(Cn1cnc2c(nnn2Cc2ccc(Cl)cc2)c1=O)N1CCCc2ccccc21
  -10	0.1	-5.8%[38.3 µM]	2	5	1.2
O=C(CCc1nnc(CCCc2ccccc2)o1)NC(C1CC1)C1CC1
  -4	1.1	1.3%	7	0	-0.3
Cc1ccc2nc(-c3ccc(NC(=O)CN4C(=O)c5ccccc5C4=O)cc3)sc2c1
  9	-2.7	5.2%	2	1	0.1
CCOC(=O)c1cc(NC(=O)NC2CCCCC2)c(C)nc1C
  -9	-6.8	5.0%	-2	0	-1.8
C=CCn1c(SCC(=O)Nc2c(C)cccc2C)nnc1-c1cnccn1
  -5	-1.4	-0.6%	-13	0	-0.7
